High-throughput results from PubChem.
D2 ag: agonists of human D2 dopamine receptor (beta-arrestin); actives 0.084% (n = 360,000); DiscoveRx PathHunter D2 beta-arrestin, luminescence, 90 min; 100% = 57 uM dopamine signal; activation, % (test concentration not listed); AID 624465; P14416; in the data active = activation above about 40%; inconclusive = about 15% to 40%; inactive = below about 15%; note: compound concentration not given in the record; the text of the record calls up to 30% inactive
Target sequence (P14416 whole entry, looked up): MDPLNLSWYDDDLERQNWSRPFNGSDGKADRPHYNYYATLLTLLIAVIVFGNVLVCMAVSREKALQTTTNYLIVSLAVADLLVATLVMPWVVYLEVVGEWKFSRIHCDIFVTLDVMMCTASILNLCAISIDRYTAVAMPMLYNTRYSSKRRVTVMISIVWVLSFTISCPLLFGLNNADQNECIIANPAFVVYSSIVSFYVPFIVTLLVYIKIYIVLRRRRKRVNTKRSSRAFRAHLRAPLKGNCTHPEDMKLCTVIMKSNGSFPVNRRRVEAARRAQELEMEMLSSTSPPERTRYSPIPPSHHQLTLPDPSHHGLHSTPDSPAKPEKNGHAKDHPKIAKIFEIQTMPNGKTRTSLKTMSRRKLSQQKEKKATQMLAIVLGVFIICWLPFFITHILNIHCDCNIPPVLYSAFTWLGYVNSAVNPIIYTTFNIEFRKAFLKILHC
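Agonist mode: compounds alone added to overnight-plated D2 PathHunter cells for 90 min at 37 C, with 57 uM final dopamine (EC100) defining full response. Beta-arrestin recruitment detected by chemiluminescent reagent, read after 1 h at ambient temperature.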
PINK1 modulator: PINK1 expression modulation; PINK1 immunofluorescence, high-content cytometry, 24 h; Potency, µM (titrated, usually from 76.6 µM), for inactives: at the top dose activation (PINK1 increase), actives largely listed as activators; actives 0.2% (n = 410,000); active = well fitted activation curve with a large enough effect; inconclusive = small, poorly fitted or top-dose-only effect; inactive = flat fitted curve, though single readings scatter; cell line not stated here;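 note: potency is the fitted concentration of half-maximal effect; % of control where 0% means no effect; nearly all actives have a fitted effect of over 65% in size; a mitochondrial uncoupler was the plate control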
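Fluorescence from anti-PINK1 antibody, together with nuclear and cell stains, was scanned on a laser-scanning cytometer. Before staining, stable-line cells were incubated 24 hours with compounds at 5 concentrations; primary antibody 12 h at 10 degrees C.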
Menin-MLL FL inh: displaces fluorescein MLL peptide from human menin; 290,000 tested, under 10 active; Fluorescence polarization, fluorescein-MLL peptide displacement from menin; FP activity change, % at 61.4 µM; inconclusive = falling polarisation curve, or a change in total fluorescence; inactive = total fluorescence flat and polarisation flat or rising; no compound was filed as active; the % refers to the polarisation; negative = inhibition;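 note: % of control where 0% means no effect; inhibitors lower the polarisation; unlabelled MLL peptide was the positive control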
gsp agonist: gsp mutant agonism; gsp mutant cells, cAMP HTRF, 30 min; control for the full effect not named in the record; AID 624287; Potency, µM (doses to about 76.9 µM), for inactives: at the highest dose activation (cAMP increase), actives largely listed as activators; actives 0.13% (n = 340,000); active = well fitted activation curve with a large enough effect; inconclusive = small, poorly fitted or top-dose-only effect, or another doubt; inactive = no such curve, though single readings can be large or run the other way; cell line not stated here;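 note: phosphodiesterase inhibitor Ro 20-1724 added with compounds to block cAMP breakdown; potency is the fitted concentration of half-maximal effect; nearly all actives have a fitted effect of over 60% in size; about a fifth of the inactives were tested at one dose only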
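Cells in DMEM/10% FBS with G418 were pretreated with compounds in DMSO plus […] (300 uM stock) for 30 min at 37C. cAMP was measured by HTRF (cAMP-d2 plus anti-cAMP antibody-K) after 30 min at room temperature.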
Sfp PPTase inh: blocks B. subtilis Sfp PPTase activity | AID 1490 | Biochemical Sfp PPTase activity, qHTS | Potency, µM, inactives show max response, negative = inhibition, most hits filed as inhibitors | Q9F4F7 | actives 3.5% (n = 310,000); active = well fitted inhibition curve with a large enough effect; inconclusive = small, poorly fitted or top-dose-only effect, or another doubt; inactive = no such curve, though single readings can be large or run the other way;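 note: the enzyme is Sfp with the accession as filed and its product quenches rhodamine fluorescence; potency is the fitted concentration of half-maximal effect; 0% = enzyme reaction without inhibitor and -100% = no enzyme wells; top concentration of the series not given in the record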
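Fluorescence-quenching assay with 15 nM Sfp, 5 uM rhodamine-CoA and 12.5 uM BHQ-2-labelled ybbR peptide in pH 7.6 Hepes/MgCl2 buffer. Enzyme was pre-incubated with compound for 15 min at room temperature. Rate was taken from the 30-min fluorescence change (525/598 nm).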
ClpP mod: qHTS Assay for Activators of ClpP. purified B. subtilis ClpP, FRET peptide cleavage, 20 min. Potency, µM (doses to about 57.5 µM), for inactives: at the top dose activity change, negative = active. actives 1.9% (n = 340,000); active = well fitted falling curve with a large enough effect; inconclusive = small, poorly fitted or top-dose-only effect; inactive = no such curve, though single readings can be large or run the other way; note: potency is the fitted concentration of half-maximal effect; the source files actives as falling curves though it sought activators and does not explain the sign; nearly all actives have a fitted effect of over 65% in size; many hits overshoot -100%
Target sequence (P80244 whole entry, looked up): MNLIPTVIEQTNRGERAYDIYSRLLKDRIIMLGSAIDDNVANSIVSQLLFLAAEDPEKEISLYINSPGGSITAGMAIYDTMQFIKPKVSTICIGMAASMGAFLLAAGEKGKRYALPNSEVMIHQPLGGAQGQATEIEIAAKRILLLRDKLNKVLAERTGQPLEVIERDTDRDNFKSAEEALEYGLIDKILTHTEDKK
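Buffer: 100 mM Tris/HCl pH8, 100 mM KCl, 0.05% low protease BSA, 2.5% glycerol, 0.01% Tween-20. ClpP 10 microg/mL final; 20 min RT; delta FRET normalized to ADEP and DMSO controls.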
gsp antag: antagonizes gsp, the McCune-Albright syndrome mutation; gsp-mutant cells, cAMP HTRF, 30 min; control for the full effect not named in the record; actives 0.4% (n = 340,000); Potency, µM (titrated, usually from 76.9 µM), without a hit: top-dose activity change, negative = inhibition, usual class: inhibitors; active = falling curve of any shape with a large fitted effect; inconclusive = falling curve, mostly with a smaller effect; inactive = flat or rising curve; cell line not stated here;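 note: intracellular cAMP measured with PDE inhibitor Ro 20-1724 present during compound exposure; potency is the fitted concentration of half-maximal effect; % is set by controls: 0 for no effect and ±100 for the full control effect; nearly all actives have a fitted effect of over 65% in size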
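Cells in G418 medium, seeded 16-24 h, 37C; buffer exchange to DPBS + 1 mM CaCl2, 0.5 mM MgCl2, 0.05% BSA; cpds in DMSO + […] (300 uM stock), 30 min 37C; HTRF cAMP detection.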
* marks the source's active call; other numbers are inactive results; u = inconclusive; x = no result given; & = joins results of further samples; [ ] = remark or other dose.

cpd	SMILES	D2 ag	PINK1 modulator	Menin-MLL FL inh	gsp agonist
1	Cc1ccc(N(C(=O)CNC(=O)c2cccs2)C(C(=O)NC2CCCC2)c2ccncc2)cc1 (configuration not stated)	2.4	1.3%	x	3%[15.4 µM]
2	C/C(=N\NC(=O)c1ccccc1)c1ccc2c(c1)OCO2	-2.1	22%[38.3 µM]	-5.9	u
3	Cc1ccc(S(=O)(=O)N2CCCC2CNC(=O)C(=O)NC2CC2)cc1 (configuration not stated)	1.1	4.1%	x	9%[15.4 µM]
4	COc1cc(N)c(Cl)cc1C(=O)OCC(=O)c1cccs1	-3.8	2.4%	-7.3	-6%[15.4 µM]
5	COc1cc(OC)cc(-c2c(-c3cccs3)c3cc(-c4ccc(CN5CCOCC5)cc4)ccc3n2C)c1	-4.2	-0.3%	x	16%
6	Cn1nnnc1SCCOc1ccc(C#N)cc1	-1.3	0.3%	0.9	-16%
7	CC(C)(/C=N/NC(=O)CSCc1ccccc1Cl)CCC#N	0.3	0.7%	6.3	-16%
8	CCc1c(C2(O)CCCCC2)[nH]c2ncccc12	-2.3	0.6%	x	-31%[inhibitor]
9	COC(=O)C1CCN(C(=O)c2oc3c(Cl)cc(C)cc3c2C)CC1	1.0	0.7%	-0.4	7%
10	COc1ccc(C(=O)CSC#N)cc1OC	-8.4	-0.5%	-4.3	23%[15.4 µM]
11	O=C(NCCC1=CCCCC1)c1ccc(F)cc1	-3.6	4.4%	-0.8	-22%
12	COC(=O)C(NC(C)=O)(Nc1nc2ccc(C)cc2s1)C(F)(F)F (configuration not stated)	-0.6	-1.2%	0.6	-3%
13	Cc1ccccc1NC(=O)CSc1nc(COc2ccccc2)nc2ccccc12	-3.7	x	-5.6	21%
14	CCN1C(=O)[C@@H]2[C@H](C1=O)[C@@H]1C[C@H]3C(=O)N(CC)C(=O)[C@H]3[C@@H]3C1=C(C(=O)N1C(=O)OC(=NCC4CC4)[C@]31C)[C@@H]2C	0.2	0.0%	4.3	x
15	CCOc1ccc(S(=O)(=O)N2CCN(c3ccc(OC)cc3)CC2)c2cccnc12	4.5	0.9%	4.2	-9%

cpd	Sfp PPTase inh	ClpP mod	gsp antag
1	4%	x	-29%
2	2%	0.9%	2%
3	x	x	0%
4	4%	x	-3%
5	x	17%	-4%
6	-8%	0.3%	11%
7	-3%	-4.6%	-12%
8	x	-4.3%	-1%
9	-16%	0.2%	-17%
10	-1%	x	5%
11	-7%	-0.7%	11%
12	2%	-0.4%	8%
13	u	-9.0%	5%
14	8%	1.6%	6%
15	18%	-2.7%	-15%

The closing 7 records of the part above are carried over, then new ones follow:
cpd	SMILES	D2 ag	PINK1 modulator	Menin-MLL FL inh	gsp agonist
9	COC(=O)C1CCN(C(=O)c2oc3c(Cl)cc(C)cc3c2C)CC1	1.0	0.7%	-0.4	7%
10	COc1ccc(C(=O)CSC#N)cc1OC	-8.4	-0.5%	-4.3	23%[15.4 µM]
11	O=C(NCCC1=CCCCC1)c1ccc(F)cc1	-3.6	4.4%	-0.8	-22%
12	COC(=O)C(NC(C)=O)(Nc1nc2ccc(C)cc2s1)C(F)(F)F (configuration not stated)	-0.6	-1.2%	0.6	-3%
13	Cc1ccccc1NC(=O)CSc1nc(COc2ccccc2)nc2ccccc12	-3.7	x	-5.6	21%
14	CCN1C(=O)[C@@H]2[C@H](C1=O)[C@@H]1C[C@H]3C(=O)N(CC)C(=O)[C@H]3[C@@H]3C1=C(C(=O)N1C(=O)OC(=NCC4CC4)[C@]31C)[C@@H]2C	0.2	0.0%	4.3	x
15	CCOc1ccc(S(=O)(=O)N2CCN(c3ccc(OC)cc3)CC2)c2cccnc12	4.5	0.9%	4.2	-9%
16	O=C(NCc1ccco1)Oc1ccccc1	-4.6	4.3%[38.3 µM]	4.4	-4%
17	Cn1ncc(Cl)c1C(=O)N1CCN(c2cccc(Cl)c2)CC1	1.9	0.1%	x	-25%
18	CCC(C)(C)C1CCC(NC(=O)N2CCN(c3ccccc3O)CC2)CC1 (configuration not stated)	5.4	4.5%	-0.2	-2%[15.4 µM]
19	CSc1cccc(NC(=O)COC(=O)C2(c3ccccc3)CC2)c1	-4.3	4.8%	x	16%
20	Cc1ccccc1NCC(=O)N/N=C\c1ccc([N+](=O)[O-])s1	2.9	4.3%	2.7	5%
21	CS(=O)(=O)N1CCC2CC1c1cc(-c3ccccc3)ccc12 (configuration not stated)	2.3	1.3%	x	x
22	CCn1c(C)[n+](CCOC(C)=O)c2cc(Cl)c(Cl)cc21	3.8	0.3%	-2.6	-10%[15.4 µM]
23	COc1cccc(/C=N/Nc2nc(-c3cccnc3)nc3ccccc23)c1	9.1	-1.3%	4.0	-4%
24	CCn1c(CC(=O)Nc2ccc(F)cc2)nnc1SCC(=O)Nc1nnc(C)s1	2.0	5.6%	-6.1	-1%[15.4 µM]
25	CN(C(=O)CS(=O)(=O)Cc1ccccc1Cl)c1ccccc1	1.0	4.1%	-1.1	11%
26	Cc1ccc(C(=O)N2CCC(Cc3ccccc3)CC2)cc1[N+](=O)[O-]	-2.1	1.1%	-1.0	8%[15.4 µM]
27	Cc1nnc(SCC(=O)NC2CCS(=O)(=O)C2)n1Cc1ccccc1 (configuration not stated)	-5.2	0.9%	-0.7	-14%[15.4 µM]
28	CCOc1ccc2[nH]cc(C(=O)NCc3ccc(F)cc3)c(=O)c2c1	3.7	3.8%	0.6	-1%
29	CCOC(=O)c1nnc(-c2ccccc2)o1	-0.3	-1.5%	2.2	4%
30	COc1ccc(OC)c(-c2csc(NC(=O)CSc3ccc([N+](=O)[O-])cc3)n2)c1	-4.0	5.4%	3.4	-4%[15.4 µM]

cpd	Sfp PPTase inh	ClpP mod	gsp antag
9	-16%	0.2%	-17%
10	-1%	x	5%
11	-7%	-0.7%	11%
12	2%	-0.4%	8%
13	u	-9.0%	5%
14	8%	1.6%	6%
15	18%	-2.7%	-15%
16	6%	0.2%	11%
17	3%	2.0%	-6%
18	17%	0.0%	7%
19	x	-5.5%	-32%
20	-13%	0.1%	-3%
21	x	-1.1%	5%
22	-21%	0.5%	13%
23	-4%	u	-17%
24	5%	x	-4%
25	8%	x	7%
26	-10%	x	x
27	0%	x	10%
28	6%	u	-20%
29	16%	-7.5%	7%
30	-2%	x	-11%

Further records
cpd	SMILES	D2 ag	PINK1 modulator	Menin-MLL FL inh	gsp agonist
31	CN(C)c1ccc(CNn2cnnc2SCC(=O)NC(C)(C)C)cc1	-1.2	0.6%	5.8	-1%[15.4 µM]
32	CC(=O)c1nc2ccccc2n1Cc1ccccc1	-2.0	2.5%	0.2	-7%
33	COc1cccc(C(=O)/C=C/Nc2cc(C)ccc2O)c1	1.6	4.0%[38.3 µM]	15	u
34	Cc1cccc(NS(=O)(=O)c2cnc[nH]2)c1	-3.2	2.0%	3.4	-3%
35	CC(=O)N1CCc2cc(S(=O)(=O)NCCC(=O)N3CCN(Cc4ccccc4)CC3)ccc21	-2.4	-0.4%[38.3 µM]	-2.6	4%
36	CC1Cc2cc(/C(O)=C3/C(=O)C(=O)N(CC4CCCO4)C3c3ccco3)ccc2O1 (configuration not stated)	0.1	-1.0%	3.4	u
37	COCCN(C(=O)COC(=O)COc1ccc2ccccc2c1)c1c(N)n(Cc2ccccc2)c(=O)[nH]c1=O	-3.0	0.8%	x	3%
38	COc1cccc(C(C#N)N2CCCCC2)c1O (configuration not stated)	0.3	0.3%	-2.1	11%
39	COc1ccc(N2C(=O)CC(N3CCN(c4ccccc4)CC3)C2=O)cc1 (configuration not stated)	-3.2	4.8%	-0.6	-8%
40	O=C(COC(=O)c1cncc(Br)c1)NCc1ccccc1	4.9	0.8%	-0.7	-14%[15.4 µM]
41	Cc1cc(C)n(C(C)CC(=O)Nc2ccc3c(c2)OCO3)n1 (configuration not stated)	-1.2	-1.4%	-1.7	16%
42	CC(C)c1ccccc1N=C1SCCN1C1CCS(=O)(=O)C1 (configuration not stated)	-2.2	-1.7%	0.4	10%
43	O=C(NC(=S)Nc1ccccc1N1CCOCC1)c1ccccc1F	-0.6	1.7%	x	-20%
44	CC[n+]1c(/C=C/N(C)c2ccccc2)n(-c2ccccc2)c2ccc(-c3nc4ccccc4s3)cc21	4.2	-2.1%	16&35	2%[15.4 µM]
45	Nc1nc(SCC(=O)Nc2cccc(S(=O)(=O)N3CCCCCC3)c2)n[nH]1	4.3	1.0%	1.1	-5%[15.4 µM]

cpd	Sfp PPTase inh	ClpP mod	gsp antag
31	-8%	-4.8%	8%
32	7%	-11%	6%
33	u	1.8%	u
34	-1%	0.7%	-6%
35	11%	-4.0%	-19%
36	-8%	-0.9%	2%
37	x	2.4%	-4%
38	6%	-4.1%	-1%
39	11%	1.3%	2%
40	19%	x	6%
41	16%	-0.4%	-6%
42	9%	1.1%	-2%
43	-3%	-1.0%	-4%
44	45µM*	-5.1%	u
45	19%	0.0%	-13%

Following part
cpd	SMILES	D2 ag	PINK1 modulator	Menin-MLL FL inh	gsp agonist
46	CCOc1ccc2c(c1)C(NC(C)=O)C(=O)N2CCN1CCOCC1 (configuration not stated)	-6.4	1.1%	x	-59%[inhibitor]
47	OCCN(Cc1ccccn1)Cc1ccccn1	8.8	-0.3%	x	x
48	Cc1c(C(=O)Nc2cnccn2)oc2ccccc12	-0.1	20%[38.3 µM]	-0.3	19%
49	O=[N+]([O-])c1cc(S(=O)(=O)Nc2ccccc2)ccc1NCc1ccccc1	-1.4	2.9%	3.4	-18%
50	CCN(C1CCS(=O)(=O)C1)S(=O)(=O)c1ccc2ccccc2c1 (configuration not stated)	-1.2	-0.5%	x	-9%[15.4 µM]

cpd	Sfp PPTase inh	ClpP mod	gsp antag
46	u	-1.4%	-1%
47	x	-3.2%	x
48	1%	0.5%	2%
49	10%	0.9%	-17%
50	x	x	6%
